Source: PubChem BioAssay (several laboratories)
HIV Env fusion: HIV envelope-mediated fusion inhibition; AID 651610; HeLa-JRFL Env/CEM21 cell fusion, luciferase; inhibition, % at 12.3 µM; 360,000 compounds, 1.1% hits;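 active = mean replicate inhibition score of at least 50 and every replicate individually at or above 50; inconclusive = only one of the two criteria met; inactive = mean below 50 and not all replicates reaching 50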;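 note: 0% = plate neutral controls and 100% = maraviroc near 300 nM; one replicate is shown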
MT1-MMP act inh: inhibitors of human MT1-MMP activation | GFP/RFP ratio change, % at 20 µM | HT1080 RFP-PRO-GFP cells, GFP/RFP ratio fluorescence, overnight; percent of plate control window, DMSO zero | 360,000 compounds, 0.061% hits | AID 651647;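 active = GFP/RFP ratio change of at least 30% with cell ATP level not reduced by more than half and red fluorescence within 50% of control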; note: strong numbers were not always called active
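Material – HT1080 RFP-PRO-GFP cells · Control set – DMSO wells and RFP-L50D-GFP cells · Incubation – overnight cell settling, then overnight compound exposure, 37 °C, 5% CO2 · Compound dosing – single-point 20 µM compound, 1% DMSO · Read-out – GFP/RFP fluorescence ratio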
Rce1 inh: yeast Ras-converting enzyme inhibition; yeast membranes, quenched prenylated peptide cleavage fluorescence; calls only; 290,000 compounds, 0.27% hits;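 active = fall in fluorescence gain of 50% or more versus controls, with final raw signal at or below 3038400; inconclusive = same 50% fall but final raw signal above 3038400; inactive = fall in fluorescence gain under 50%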;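 note: plate controls were neutral control wells for no effect and wells lacking membranes for full effect; tested at 10 µM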
Target sequence (Q03530 whole entry, looked up): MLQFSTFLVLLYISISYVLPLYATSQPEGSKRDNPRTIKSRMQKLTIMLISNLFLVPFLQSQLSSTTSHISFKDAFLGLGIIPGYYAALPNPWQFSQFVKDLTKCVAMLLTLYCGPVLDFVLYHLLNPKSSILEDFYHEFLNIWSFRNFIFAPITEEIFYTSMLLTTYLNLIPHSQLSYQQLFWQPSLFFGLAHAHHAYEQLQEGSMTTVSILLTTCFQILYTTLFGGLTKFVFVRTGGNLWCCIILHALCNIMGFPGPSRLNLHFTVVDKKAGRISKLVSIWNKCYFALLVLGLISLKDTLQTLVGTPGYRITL
eIF4H FP inh: inhibitors of RNA binding by human eIF4H | inhibition, % at 35 µM | eIF4H fluorescence polarization binding assay | AID 2012 | Q15056 | 290,000 compounds, 0.94% hits;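 active = 50% or more with normal probe brightness, or confirmed in later tests; inconclusive = above 50% with abnormal brightness, or retests that disagree; inactive = below 50% or failed in later tests; about a fifth of its hits are not listed in these tables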;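 note: calls also rest on retests at 20 µM and on dose response follow-up; 0% = protein and probe with vehicle and 100% = probe without protein; strong numbers were not always called active; many hits fall short of the cut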
Yeast UUG start: yeast start codon fidelity modulation. activity score, % at 18.7 µM. AID 602363. S. cerevisiae UUG-firefly luciferase reporter, luminescence/redox ratio. 350,000 compounds, 0.13% hits;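 active = replicate mean at a twofold rise or more, about +100% in these data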;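 note: firefly luciferase made from a UUG start codon reports start codon fidelity; reporter light over untreated wells divided by growth signal over untreated wells; some hits fall short of that in this replicate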
CSC inhib: cancer stem cell inhibition | 300,000 compounds, 1.1% hits | cancer stem cell-like cells viability, luminescence | inhibition, % at 7.5 µM;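 active = mean at 75% or more and at least half the replicates too; inconclusive = mean and replicates disagree; tested in HMLE shEcad cells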;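 note: 0% = median of negative and 100% = median of positive control wells; the first replicate is given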
PABP polyA inh: blocks human PABP binding to poly(A) RNA. P11940. fluorescence polarization. inhibition, % at 35 µM. 290,000 compounds, 1% hits. AID 2014;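 active = 50% or more with normal probe brightness, or confirmed in later tests; inconclusive = above 50% with abnormal brightness, or retests that disagree; inactive = below 50% or failed in later tests; about a fifth of its hits are not listed in these tables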;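 note: calls also rest on retests at 20 µM and on dose response follow-up; controls were probe without protein and protein plus probe with vehicle; some compounds called inactive have numbers as strong as hits; many hits fall short of the cut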
eIF4H FP inh retest: recorded beside eIF4H FP inh, whose call it bears; inhibition, %; compound at 20 µM; confirmation average;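 mean of two retest wells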
PABP polyA inh retest: also measured in PABP polyA inh; calls as there; inhibition, %; compound at 20 µM; confirmation repeats;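 mean of two retest wells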
MT1-MMP act inh RFP: second read-out of MT1-MMP act inh, no call of its own (marks repeat the call); RFP signal change, %; measured here: RFP expression control read;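 0 = vehicle wells; hits needed this value within 50% of zero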
Active calls of the source: *; i = inactive; ? = inconclusive; nt = no result given.

SMILES	HIV Env fusion	MT1-MMP act inh	MT1-MMP act inh RFP	Rce1 inh	eIF4H FP inh	Yeast UUG start	CSC inhib	PABP polyA inh	others
O=C(NCc1ccc2c(c1)OCO2)c1ccc(=O)[nH]c1	nt	-3	2	i	2	nt	-13	1
CCOC(=O)N1CCN(CC(=O)Nc2cc3c(cc2C(C)=O)OCO3)CC1	-11	1	1	i	-3	-2	nt	2
Cc1ccc(-n2c3c(c(O)c(-c4ccccc4)c2=O)C(=O)CC(C)(C)C3)cc1	-21	1	1	i	-3	7	-1	-1
Cc1ccc(S(=O)(=O)N(C)CCCC(=O)Nc2ccc(C)cc2C)cc1	-2	-4	-11	i	0	nt	-5	-6
CCOC(=O)c1nc(N)c(C(=O)OCC)[nH]1	nt	9	9	i	7	-11	-7	8
CC(=O)Oc1ccc2c(=O)c(Oc3ccccc3[N+](=O)[O-])coc2c1	1	1	5	i	6	1	-5	-4
CC(C)c1ccc(C(=O)COC(=O)C(O)c2ccccc2)cc1 (configuration not stated)	1	2	5	nt	nt	-26	-8	nt
CCOC(=O)c1c(NC(=S)Nc2ccccc2)sc2c1CC(C)(C)SC2	11	-24	3	i	4	nt	-9	3
COc1cccc(N(CC(=O)N/N=C(\C)c2cccs2)S(C)(=O)=O)c1	-10	1	1	i	-8	nt	-6	2
Cc1cc(C)n(CC(O)CN(c2ccccc2)S(=O)(=O)c2ccc3ccccc3c2)n1 (configuration not stated)	-6	0	-2	i	3	-21	-11	6
CC1CCN(CCC(=O)Nc2ccc(F)c(F)c2)CC1	-7	0	1	i	-2	-18	-2	0
CN(C)c1ccc(NC(=S)Nc2ccc3c(c2)c(=O)n(C)n3-c2ccc(C(C)(C)C)cc2)cc1	58*	2	0	nt	nt	-20	nt	nt
N#CC1=C(N)S[C@@H](C(=O)c2ccc(F)cc2)[C@@H]1c1cccs1	29	5	2	i	5	nt	-3	19
COc1ccccc1NC(=O)CSc1nnnn1Cc1ccccc1	nt	0	2	i	-2	-10	-3	0
Cc1cc(C(=O)NCc2ccccc2Br)no1	nt	1	-2	i	2	nt	-1	-6
O=C(c1ccccc1)N1CCN(CC(O)COCC2CC=CCC2)CC1 (configuration not stated)	-65	0	4	i	4	-6	-3	4
COc1ccc(C(=O)N2CC(=O)Nc3ccc(F)cc3C2c2ccccc2)cc1 (configuration not stated)	-3	-10	1	i	3	-2	-9	0
C=CCON/C(CCC)=C1\C(=O)C(C(=O)OC)C(C)(C)CC1=NC (configuration not stated)	5	2	5	i	14	nt	-14	28
Cc1ccc(C)n1-c1ccc(-c2ccnc(N)n2)cc1	-12	1	5	nt	13	-20	nt	-9
C[C@H](CO)N1C[C@H](C)[C@@H](CN(C)S(=O)(=O)c2cccs2)Oc2c(NS(=O)(=O)c3cn(C)cn3)cccc2C1=O	-141	1	1	nt	nt	-19	-10	nt
O=S(=O)(c1ccc2ccccc2c1)N1CCN(C(=S)Nc2ccc(F)cc2)CC1	-11	4	0	i	3	-32	-10	-15
Cc1ccc(/C=N/NC(=O)c2nnn(-c3nonc3N)c2-c2cccs2)cc1	8	-8	-4	i	-7	-24	-6	-9
Cn1c(Sc2ccccc2Cl)c(C=O)c2ccccc21	nt	-2	-1	i	-7	nt	16	4
CCCCC1CCC(C(=O)Nc2ccc(N3CCOCC3)cc2N2CCOCC2)CC1 (configuration not stated)	9	-4	0	nt	nt	9	-2	nt
CCc1nnc(NC(=O)CSc2nnc(COc3ccccc3)n2Cc2ccccc2)s1	-23	0	0	nt	-5	-9	-17	-14
CSc1ccc(C2Nc3cccc4cccc(c34)N2)cc1	-14	6	4	i	90*	-17	-6	26*	eIF4H FP inh retest=105*;PABP polyA inh retest=52*
O=C(OC(C(=O)Nc1ccc(Cl)cc1C(F)(F)F)c1ccccc1)C1=COCCO1 (configuration not stated)	nt	11	0	i	-4	nt	-5	-2
CCCS(=O)(=O)NCc1cn2c(C)csc2n1	nt	-6	6	i	4	-25	-14	-10
CCn1c(CNC(=O)c2ccc(Cl)cc2)nnc1SCC(=O)N1CCOCC1	-13	6	7	i	-3	-29	-14	5
CC(C)C[C@H]1CNC(=S)N1CC1CCN(CC2CCC(C(C)(C)C)CC2)CC1 (some centres not stated)	-219	3	-8	nt	nt	-6	nt	nt

5 records picked at random from those above:
SMILES	HIV Env fusion	MT1-MMP act inh	MT1-MMP act inh RFP	Rce1 inh	eIF4H FP inh	Yeast UUG start	CSC inhib	PABP polyA inh	others
CCc1nnc(NC(=O)CSc2nnc(COc3ccccc3)n2Cc2ccccc2)s1	-23	0	0	nt	-5	-9	-17	-14
C=CCON/C(CCC)=C1\C(=O)C(C(=O)OC)C(C)(C)CC1=NC (configuration not stated)	5	2	5	i	14	nt	-14	28
O=S(=O)(c1ccc2ccccc2c1)N1CCN(C(=S)Nc2ccc(F)cc2)CC1	-11	4	0	i	3	-32	-10	-15
CCCS(=O)(=O)NCc1cn2c(C)csc2n1	nt	-6	6	i	4	-25	-14	-10
Cc1ccc(/C=N/NC(=O)c2nnn(-c3nonc3N)c2-c2cccs2)cc1	8	-8	-4	i	-7	-24	-6	-9

Back to the main list, starting three compounds before the break.
SMILES	HIV Env fusion	MT1-MMP act inh	MT1-MMP act inh RFP	Rce1 inh	eIF4H FP inh	Yeast UUG start	CSC inhib	PABP polyA inh	others
CCCS(=O)(=O)NCc1cn2c(C)csc2n1	nt	-6	6	i	4	-25	-14	-10
CCn1c(CNC(=O)c2ccc(Cl)cc2)nnc1SCC(=O)N1CCOCC1	-13	6	7	i	-3	-29	-14	5
CC(C)C[C@H]1CNC(=S)N1CC1CCN(CC2CCC(C(C)(C)C)CC2)CC1 (some centres not stated)	-219	3	-8	nt	nt	-6	nt	nt
O=[N+]([O-])c1ccc(O)c(-c2nn[nH]n2)c1	nt	2	5	nt	11	-26	-8	14
O=C(CSc1nc2c(c(=O)n1-c1ccc(Cl)cc1)SCC2)Nc1ccc2c(c1)OCCO2	-4	-3	0	nt	-2	-10	-6	5
COc1ccccc1Nc1nc(N)nc(CSC(=S)N2CC(C)CC(C)C2)n1 (configuration not stated)	-3	0	0	i	8	-13	55	5
Cn1nnc(NC(=O)c2ccco2)n1	-21	-3	3	i	-11	-2	6	-8
COc1ccccc1C(=O)O/N=C(\N)c1ccccc1Cl	-90	-2	2	i	-1	0	3	6
O=C1C2C3CCC(C3)C2C(=O)N1Cc1ccccc1 (configuration not stated)	1	-6	1	i	-5	nt	-12	-5
Cc1ccccc1CSCC(=O)NC(=O)NC(C)(C)C	7	3	-3	i	-2	-3	10	-7
O=c1c2c(-c3ccccc3)csc2nc2c3ccccc3c(NCCN3CCOCC3)nn12	-8	-3	-8	i	12	nt	nt	0
CSc1ccc(Cn2c(C)c(C(=O)NCc3ccc(F)cc3)sc2=O)cc1	16	0	-16	nt	nt	-12	nt	nt
Cc1cc(NC(=O)CSc2nc3ccccc3[nH]2)no1	?	5	3	i	-4	-28	-16	24
Cc1ccc(Cn2ccc(NC(=O)c3c(-c4ccccc4Cl)noc3C)n2)cc1	nt	1	-7	i	-3	5	-17	0
CCCCCCSc1ccc(-c2nc3ccc(Cl)cn3c2NC2CCCCC2)cc1	-11	-1	-10	nt	nt	-11	10	nt
COCc1cc(C)nc(SCC(=O)Nc2ccccc2N2CCOCC2)c1C#N	-17	-7	0	i	-2	-6	nt	1
Cc1ccc(NC(=O)Nc2nnc(-c3ccccc3)o2)cc1	-19	3	6	i	-2	nt	18	33
CCOc1ccc(OCCn2c(SCC(=O)O)nc3ccccc32)cc1	10	3	2	i	-3	-11	-4	2
Cc1nc2nc(C)c(CCC(=O)N3CCN(c4ccccc4)CC3)c(C)n2n1	-17	6	7	i	2	3	nt	-2
CC(=O)c1ccccc1OCCOc1ncnc2sccc12	-6	-4	-4	i	5	nt	2	12
S=C(NCCCn1ccnc1)NC1CCCCC1	12	6	5	i	87	nt	-1	-2	eIF4H FP inh retest=-17;PABP polyA inh retest=2
CC(C)c1csc(CN2CCCC(CNC(=O)c3cccc4ccccc34)C2)n1 (configuration not stated)	9	-3	-6	i	-14	-12	1	1
COc1ccccc1OCc1nnc(SCC(=O)N2CCCC2)o1	4	3	1	i	-4	nt	-4	-7
Nn1c(SCC(=O)Nc2cc(S(=O)(=O)N3CCOCC3)ccc2Cl)nnc1-c1cccnc1	7	3	3	i	-9	-8	-1	-7
CCC1Oc2ccc(C)cc2N(CC(=O)NCCN2CCOCC2)C1=O (configuration not stated)	2	-1	2	i	2	-6	-8	7
CCOC(=O)CCNC(=O)N1CCC(CCOc2ccccc2)(C(=O)OCC)CC1	6	2	1	i	nt	7	-10	nt
CCC1(CC)C(=O)N(C)C(=O)NC1=Nc1ccc(OC)cc1	nt	2	2	i	-10	nt	-10	15
CC(C)OCCCNC(=O)C1CCC(CNS(=O)(=O)c2ccccc2)CC1 (configuration not stated)	-2	-1	3	i	-5	4	0	4
Cn1c(CCN2CCCCC2)nc2cc(NC(=O)COc3ccc(Cl)cc3)ccc21	7	5	2	i	-13	-12	-10	-7
Cc1ccc(/C=N/n2cnc3sc(-c4ccccc4)cc3c2=O)o1	-302	-2	5	i	-6	-5	20	-2
CCOc1ccc(OCc2ccc(C(=O)Nc3ccc(Cl)cn3)o2)cc1	nt	8	-1	i	0	-9	9	4
Cc1ccc(S(=O)(=O)Nc2ccccc2F)cc1C(=O)N1CCN(c2ccccc2O)CC1	-5	5	4	nt	nt	nt	-9	nt
O=C(O)c1cccc(S(=O)(=O)NCc2cccs2)c1	-38	0	0	nt	-11	-5	-8	-4
CSc1ccc(Cl)c(C(=O)NCCCn2ccnc2)c1	4	1	2	i	8	-6	-15	9
NC(=S)c1cc2cc(Br)ccc2oc1=O	-3	-1	0	i	-3	nt	-13	-4
O=C(C1=C(O)C(=O)N(CCN2CCOCC2)C1c1cccc(Br)c1)c1cccs1 (configuration not stated)	12	0	2	i	-3	-3	0	7
COc1ccccc1CNc1nc(NCc2ccc(C(C)C)cc2)c2sccc2n1	44	-7	-18	nt	nt	-8	nt	nt
CN(C(=O)c1ccc(NC(=O)Cc2cccc(NC(=O)C3CCN(C(=O)c4ccccc4)CC3)c2)cc1)C1CCCC1	17	3	0	nt	nt	-8	14	nt
CC(=O)Nc1nc2c(s1)C(=O)NCCC2	-30	3	6	i	-11	nt	-10	-11
CCOC(=O)C1C(=O)NCC2CCCC21 (configuration not stated)	nt	5	4	i	-3	-21	5	16
COc1ccc(S(=O)(=O)N2CCC(C)CC2)cc1OC	-4	1	1	i	-7	-9	-15	0
Oc1ccc2nc(Cc3ccccc3)[nH]c2c1	nt	2	0	i	-4	-14	4	1

This is a subset; the hit share may differ from the screen's.
